Polio RdRp inh = inhibitors of poliovirus RNA polymerase binding and polymerization; P03300; poliovirus polymerase elongation, fluorescence polarization; hits give low values; % elongation, % (compound at 16.7 µg/mL); 0.66% of 150,000 active; AID 588519; in the data active = % elongation below about 90%; note: some results filed as inactive read as strong as hits
Target sequence (P03300 1749-2209 limits assumed): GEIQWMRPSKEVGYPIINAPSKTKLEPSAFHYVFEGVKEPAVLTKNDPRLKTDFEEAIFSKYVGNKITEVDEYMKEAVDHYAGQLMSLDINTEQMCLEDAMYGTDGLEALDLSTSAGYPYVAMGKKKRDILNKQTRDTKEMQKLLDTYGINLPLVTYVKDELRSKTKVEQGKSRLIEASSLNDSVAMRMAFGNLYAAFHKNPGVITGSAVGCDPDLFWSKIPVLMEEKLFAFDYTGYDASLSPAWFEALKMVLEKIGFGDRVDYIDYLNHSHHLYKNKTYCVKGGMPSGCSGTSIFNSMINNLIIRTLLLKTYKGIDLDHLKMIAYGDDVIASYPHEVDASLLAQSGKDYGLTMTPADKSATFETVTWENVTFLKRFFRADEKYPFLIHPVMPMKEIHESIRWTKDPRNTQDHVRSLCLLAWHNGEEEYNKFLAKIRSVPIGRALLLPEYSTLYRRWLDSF
Mtb MbtI inh = MbtI salicylate synthase inhibition; P9WFX0; purified MbtI enzyme, fluorescence intensity read-out; inhibition, %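 (about 17 µg/mL by stock and volumes)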; 0.89% of 100,000 active;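 active = above 50% in both replicates, above 80% if mildly self-fluorescent; inactive = the rest, strongly fluorescent compounds included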;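 note: 0% = mean of negative and 100% = mean of positive controls; one replicate is shown; some compounds called inactive have numbers as strong as hits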
Mtb MenB inh = inhibitors of Mycobacterium tuberculosis MenB enzyme; P9WNP5; 0.43% of 100,000 active; MenB enzyme assay, absorbance read-out; some hits fall short of the stated cut; inhibition, %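 (about 12 µg/mL by stock and volumes)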;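 active = mean of two replicates above 30%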;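 note: 0% = no compound and 100% = wells with inactive enzyme; the first replicate is given; strong numbers were not always called active; inactives centre near -10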
Target sequence (P9WNP5 whole entry, looked up): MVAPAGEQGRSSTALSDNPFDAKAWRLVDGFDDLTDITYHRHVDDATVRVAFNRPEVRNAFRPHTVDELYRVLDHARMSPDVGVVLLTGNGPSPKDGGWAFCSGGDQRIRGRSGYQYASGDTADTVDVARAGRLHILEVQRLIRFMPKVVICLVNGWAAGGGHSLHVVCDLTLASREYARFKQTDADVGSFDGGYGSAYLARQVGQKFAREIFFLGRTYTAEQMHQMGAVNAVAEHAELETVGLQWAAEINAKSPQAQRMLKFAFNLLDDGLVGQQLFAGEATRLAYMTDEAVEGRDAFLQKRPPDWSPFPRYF
Polio RdRp inh intensity = recorded beside Polio RdRp inh, whose call it bears; % elongation; measured here: total intensity read-out; formula for this scale not given here;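 total fluorescence in place of polarization; lower means less elongation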
An asterisk follows results filed as active; / = not tested or not shown.

Every second line gives: Polio RdRp inh, Polio RdRp inh intensity, Mtb MbtI inh, Mtb MenB inh
O=C(Nc1ccc(OC(F)(F)F)cc1)c1ccc(=O)[nH]c1
 : 103, 106, 6, 12
COC(=O)Nc1nnc(SCc2ccc(C)cc2)s1
 : 103, 102, -5, -28
O=C1c2ccccc2C(=O)N1c1ccc2ncccc2c1
 : 108, 111, /, -3
CCOC(=O)c1cc2n(n1)C(C(F)(F)F)CC(c1ccccc1)N2 (configuration not stated)
 : 101, 102, 4, -23
O=C(COc1ccc(-c2ccccc2)cc1)N1CCCC1
 : 102, 105, -6, /
CC1CN(C(N)=S)N(c2ccccc2)C1 (configuration not stated)
 : 103, 103, -6, -6
O=C(COCc1cc(-c2cccs2)on1)NC1CCCc2ccccc21 (configuration not stated)
 : 101, 102, 6, 3
CCOC(=O)c1ccc(NC(=O)N2C3CCC2CC(NC(=O)NC24CC5CC(CC(C5)C2)C4)C3)cc1 (configuration not stated)
 : 101, 102, 15, -20
COC(=O)C1=C(C)NC(C)=C(C(=O)OCCCN2CCC(c3ccccc3)(c3ccccc3)CC2)C1c1cccc([N+](=O)[O-])c1 (configuration not stated)
 : 100, 102, -14, /
COc1ccc2nc(C)cc(Nc3ccccc3)c2c1
 : 99, 95, /, 8
O=C(Oc1cccnc1)c1cc2ccccc2o1
 : 93, 98, /, 1
CCCNC(=O)c1ccc2c(c1)c(C)c(C)n2C
 : 100, 103, -115, 14
CN(C1CCCCC1)S(=O)(=O)N1CCCC(C(=O)NCc2cccc(Br)c2)C1 (configuration not stated)
 : 102, 103, -21, -8
COc1ccc(-n2cc(-c3ccccc3)c3c(NCc4ccccc4)ncnc32)cc1
 : 103, 98, 41, -9
CCCNC(=O)C1CCN(c2cc(C)nc3c(-c4ccc(Cl)cc4)c(C)nn23)CC1
 : 104, 98, 2, -21
Cc1ccc(Cn2ccsc2=NC(=O)C2(C#N)CCCC2)cc1
 : 108, 107, 12, 3
CCN(CC)C(=O)c1ccccc1NC(=O)c1cccc(S(=O)(=O)N(CC)CC)c1
 : 105, 104, 1, -15
Cc1nn(CC(=O)NC2CCCC(C)C2C)c(=O)c2cc3cc(F)ccc3n12 (configuration not stated)
 : 103, 98, 22, -31
O=C(CCS(=O)(=O)c1ccccc1)Nc1ccc2c(c1)C(=O)NC2=O
 : 97, 104, 159, 11
O=c1oc2cc(Br)ccc2n1CO
 : 104, 103, 5, -28
COc1ccc(-c2nn(CN(CC(C)C)CC(C)C)c(=S)n2CC2CCCO2)cc1 (configuration not stated)
 : 108, 111, 6, -39
CCOc1cc(CNCc2ccc(CN3CCOCC3)cc2)ccc1OCC(=O)N(C)C
 : 101, 95, 7, 10
CNc1ncnc2c1ncn2[C@@H]1O[C@H](CO)[C@@H](O)[C@H]1O
 : 99, 103, -6, 11
CN(C(=O)CSc1nc(N)cc(=O)[nH]1)c1ccccc1
 : 101, 103, 2, 5
CC(=O)NC(C)C1COc2ccccc2O1 (configuration not stated)
 : 100, 101, -14, -65
CCOc1ccc(N=c2scc(-c3ccc(S(=O)(=O)N4CCCC4)cc3)n2CC)cc1
 : 103, 99, 5, -5
CCOc1ccc(NC(=S)N2CCSC2c2ccc(C#CC(C)(C)O)s2)cc1 (configuration not stated)
 : 105, 91, /, -6
NCCSc1ncc(-c2ccc(Cl)cc2)[nH]1
 : 98, 106, -4, 16
Cc1ccc(CNC(=O)COc2nc3ccccc3nc2N2CCOCC2)cc1
 : 99, 99, 28, 7
CCOC(=O)c1cnn(-c2ccccc2)c1NC(=O)CN1CCOCC1
 : 99, 101, 2, -3
CCCOc1ccc(CC(=O)NC(C)CC)cc1OC (configuration not stated)
 : 100, 102, -1, 6
O=c1c2c(nc3nc(NCc4cccs4)[nH]n13)CCCC2
 : 104, 101, 8, 0
COc1cc2[nH]c(=S)nc(NCCc3ccc(S(N)(=O)=O)cc3)c2cc1OC
 : 100, 100, 8, -16
CSc1n[nH]c(=O)c2cc(C)nn12
 : 109, 100, -1, 8
Oc1ccccc1N1CCN(C(=S)NCc2ccccc2)CC1
 : 109, 109, /, -9
O=C(Cc1ccccc1)Nc1nc2ccccc2[nH]1
 : 104, 109, 11, -14
CCc1c(O)n2c(nc3ccccc32)[nH]c1=O
 : 123, 170, 39, 1
CS(=O)(=O)Nc1ccccc1-c1nc2ccccc2[nH]c1=O
 : 101, 105, 7, 0
CCOC(=O)c1c(CC(C)C)csc1NC(C)=O
 : 101, 101, -2, -35
O=C(NCc1ccco1)c1ccc2c(c1)CCN2S(=O)(=O)c1ccccc1
 : 103, 102, 0, -7
NNC(=S)NC12CC3CC(CC(C3)C1)C2
 : 100, 102, 1, -24
C=CCn1c(SCc2ccc(Cl)cc2)nc2cc(C(=O)N3CCC(C(N)=O)CC3)ccc2c1=O
 : 100, 104, -5, -4
COCCCN=CC1=C(O)CC(C)(C)CC1=O
 : 102, 101, 22, 4
CCCCn1c(O)c(C#N)c(C)cc1=O
 : 105, 99, -1, -11
NC(=S)CC(=O)Nc1ccccc1
 : 101, 116, 93*, -36
CS(=O)(=O)Nc1ccc(N2CCN(c3ccc(C(F)(F)F)cn3)CC2)nc1
 : 103, 104, -60, -7
O/N=C(/Cc1ccc2ccccc2n1)c1ccccc1
 : 102, 106, -2, /
CCCn1c(SCC(=O)N2N=C(c3ccccc3)CC2c2ccc(OC)cc2)n[nH]c1=O (configuration not stated)
 : 106, 103, -8, -38
CCOC(=O)c1ccc(-n2c(C)cc(C=NCc3cn4ccsc4n3)c2C)cc1
 : 103, 105, 1, -17
CN(C(=O)COC(=O)C1(c2ccc(Cl)cc2)CC1)C1CCS(=O)(=O)C1 (configuration not stated)
 : 103, 104, -10, -29

A different layout for part of the listing above.
> COCCCN=CC1=C(O)CC(C)(C)CC1=O
  Polio RdRp inh = 102	Polio RdRp inh intensity = 101	Mtb MbtI inh = 22	Mtb MenB inh = 4
> O/N=C(/Cc1ccc2ccccc2n1)c1ccccc1
  Polio RdRp inh = 102	Polio RdRp inh intensity = 106	Mtb MbtI inh = -2	Mtb MenB inh = /
> CN(C(=O)COC(=O)C1(c2ccc(Cl)cc2)CC1)C1CCS(=O)(=O)C1 (configuration not stated)
  Polio RdRp inh = 103	Polio RdRp inh intensity = 104	Mtb MbtI inh = -10	Mtb MenB inh = -29
> CCCCn1c(O)c(C#N)c(C)cc1=O
  Polio RdRp inh = 105	Polio RdRp inh intensity = 99	Mtb MbtI inh = -1	Mtb MenB inh = -11

New compounds follow.
SMILES,Polio RdRp inh,Polio RdRp inh intensity,Mtb MbtI inh,Mtb MenB inh
Cc1nn(-c2ccccc2)cc1/C=N/n1c(-c2ccncc2)n[nH]c1=S,103,107,51*,-18
O=C(CNC(=O)c1ccccc1F)OCc1ccccc1,101,94,-7,/
CN(/N=C/c1sc2ccccc2c1O)c1ccccc1,105,103,27,/
CCCCn1c(SCC(=O)NC(=O)NC2CCCC2)nc2ccccc2c1=O,94,98,-6,-38
Cc1cccc(C(=O)OCC(=O)Nc2ccc(Cl)cc2)c1,101,107,-10,/
O=C(Nc1cccc(C(=O)NC2CC2)c1)c1cccc(-n2cccc2)c1,97,95,19,4
C=CCN=CC1=C(O)CCCC1=O,104,97,18,-20
CCOC(=O)c1ccc(N2CCN(c3ccccc3F)CC2)c(NC(=O)Nc2ccc(CC)cc2)c1,103,107,13,-9
CC1(c2ccc(Cl)cc2Cl)OCC(Cn2cncn2)O1 (configuration not stated),100,102,-12,-20
COc1cc(OC)c2ccc(=O)oc2c1,98,102,/,4
O/N=C(/c1ccccc1)c1ccccn1,103,98,1,18
CCOCC(=O)Nc1nnc(CC)s1,101,99,39,-14
CCOC(=O)CNc1nc(C(C)(C)C)nc2c1nnn2Cc1ccccc1,104,101,-9,-16
N=C1C(c2nc3ccccc3c(=O)[nH]2)=C(O)CN1c1ccccc1,116,123,/,-17
CCOc1ccc2nc(N3CCCC(C(=O)NCCCN4CCN(CC)CC4)C3)sc2c1 (configuration not stated),100,102,0,5
COc1ccc(C2=NN(S(C)(=O)=O)C(c3ccc(C)cc3)C2)cc1 (configuration not stated),109,126,-6,-10
COc1ccc2c(c1)N(C(=O)NC1CCCCC1)C(C)(C)CC2C (configuration not stated),99,103,-18,-3
CCc1ccc(OC(C)C(=O)N(Cc2ccccc2)C2CCS(=O)(=O)C2)cc1 (configuration not stated),103,101,-12,-2
O=C(OCC(=O)N1CCCC1)c1ccc(Oc2ccccc2)cc1,104,103,-5,/
O=C(Nc1ccon1)c1cc(-c2ccccc2)nc2ccccc12,101,103,115,0

Reprinted from the part before: two entries, followed by the next part.
SMILES,Polio RdRp inh,Polio RdRp inh intensity,Mtb MbtI inh,Mtb MenB inh
O=C(OCC(=O)N1CCCC1)c1ccc(Oc2ccccc2)cc1,104,103,-5,/
O=C(Nc1ccon1)c1cc(-c2ccccc2)nc2ccccc12,101,103,115,0
c1ccc(N=c2scc(-c3cccs3)n2N=C2CCCC2)cc1,116,117,5,-17
CCOC(=O)c1c(C)c(-c2ccccc2)n(CC(=O)NCc2cccs2)c1C,99,104,-1,-4
FC(F)(F)c1ccc2c(c1)[nH]c(=S)n2C1CC1,96,102,22,-24
O=C(O)c1sc(=S)sc1C(=O)O,97,101,14,-44
CC1Cc2ccccc2N1C(=O)COC(=O)/C=C/c1ccc2c(c1)OCO2 (configuration not stated),111,108,-23,-27
CC(C)Cn1c(SCC(=O)c2ccc3c(c2)NC(=O)CO3)nc2ccccc2c1=O,101,98,-65,-23
O=C(O)c1cccc2cccc(S(=O)c3cccc4cccc(CO)c34)c12 (configuration not stated),99,90,7,-1
CCC(Sc1nc(N)cc(=O)[nH]1)C(=O)NC(C)c1ccccc1 (configuration not stated),103,103,0,-11
COc1ccc(C(CNC2CC3CC=CC32)N(C)C)cc1OC (configuration not stated),98,95,4,18
FC(F)(F)c1ccc(-c2noc(CN3CCCC3)n2)cc1,103,103,-7,-13
CC(C)CNc1nc2c(c(=O)[nH]c(=O)n2C)n1CC(C)O (configuration not stated),/,/,0,-20
CC1(C)Oc2ccc(NC(=O)C3(c4ccccc4)CCCC3)cc2O1,104,102,/,-13
COCC(C)n1c(C)cc(C(=O)COC(=O)c2cc(-c3ccco3)nc3ccccc23)c1C (configuration not stated),102,107,70,-7
O=C(NCC(=O)N1CCN(c2cccc(C(F)(F)F)c2)CC1)c1ccccc1,102,104,-10,-24
N#Cc1ccc(C(=O)N2CCCSC2=NCCc2ccccc2)cc1,99,102,3,6
CCN(CC)c1nc2n(c(=O)n1)CCO2,100,101,6,24
CNC(=O)Nc1ccc(C(=O)O)cc1,102,100,-14,-24
CC(C)CC(C)c1cc(N)nc2nc3ccccc3n12 (configuration not stated),102,103,5,-15
COCc1cc(C)nc2n[nH]c(N)c12,106,104,/,-16
CN(C)C(=O)Nc1cnc2ccccc2c1,103,103,175,-41
O=C(O)c1ccc(C(F)(F)F)cc1,101,94,-4,/
CC1CCCC/C1=N/NC(=O)CNc1ccc(Cl)cc1 (configuration not stated),99,98,9,0
N#Cc1cccc(C#N)c1-n1cccc1,103,101,0,-24
Nn1c(Cc2ccccc2F)nnc1SCc1cc(=O)n2ccsc2n1,101,99,24,-16
Clc1ccc(C2=CC(c3ccccc3)n3ncnc3N2)cc1 (configuration not stated),105,116,/,-16
Cc1ccc(-n2nc(C)c(C3(O)C(=O)N(C)c4ccccc43)c2N)cc1 (configuration not stated),100,103,-3,-7
CCOCC(=O)Nc1ccccc1C(C)C,102,103,-5,-14
FC(F)(F)c1nc2ccc(Oc3ccc4nc(C(F)(F)F)[nH]c4c3)cc2[nH]1,104,106,8,-12
CC1Cc2ccccc2N1C(=O)COc1cccc2c1OC(C)(C)C2 (configuration not stated),104,105,9,-19
O=C(Cc1cccc(C(F)(F)F)c1)NCC(c1ccco1)N1CCCCC1 (configuration not stated),113,124,-16,-30
Clc1ccc(C(c2ccccc2)N2CCNCC2)cc1 (configuration not stated),101,97,6,-17

Assay outcomes: PubChem, ICCB-Longwood Screening Facility, Harvard Medical School
